From PubChem
Six1-Eya2 blk – inhibitors of human Six1/Eya2 interaction; activity change, % (no concentration beside the values); Q15475+O00167; actives 0.56% (n = 360,000); AID 651725; AlphaScreen GST-Six1/His-Eya2 binding, biochemical; stronger effect = lower value; control for the full effect not named in the record; in the data active = activity change below about -65%; inconclusive = about -30% to -65%; inactive = above about -30%; also: % is scaled to controls: 0 for no effect and ±100 for the full control effect; compound concentration not given in the record
Target sequence (O00167 whole entry, looked up): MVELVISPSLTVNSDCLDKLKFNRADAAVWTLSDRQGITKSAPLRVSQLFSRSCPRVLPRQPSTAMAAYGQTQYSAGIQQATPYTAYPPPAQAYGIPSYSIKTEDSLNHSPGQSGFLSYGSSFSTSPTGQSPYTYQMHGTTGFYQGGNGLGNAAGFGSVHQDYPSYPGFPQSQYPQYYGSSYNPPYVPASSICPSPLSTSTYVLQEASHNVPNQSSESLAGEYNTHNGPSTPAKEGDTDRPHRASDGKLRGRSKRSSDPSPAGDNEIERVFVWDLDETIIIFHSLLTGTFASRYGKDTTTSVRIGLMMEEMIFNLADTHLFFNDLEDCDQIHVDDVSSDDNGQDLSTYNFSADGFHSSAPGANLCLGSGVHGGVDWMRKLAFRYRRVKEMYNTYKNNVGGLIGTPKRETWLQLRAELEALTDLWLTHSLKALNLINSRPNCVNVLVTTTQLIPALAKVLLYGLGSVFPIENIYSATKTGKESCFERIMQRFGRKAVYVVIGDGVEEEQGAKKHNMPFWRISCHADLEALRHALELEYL
Target sequence (Q15475 whole entry, looked up): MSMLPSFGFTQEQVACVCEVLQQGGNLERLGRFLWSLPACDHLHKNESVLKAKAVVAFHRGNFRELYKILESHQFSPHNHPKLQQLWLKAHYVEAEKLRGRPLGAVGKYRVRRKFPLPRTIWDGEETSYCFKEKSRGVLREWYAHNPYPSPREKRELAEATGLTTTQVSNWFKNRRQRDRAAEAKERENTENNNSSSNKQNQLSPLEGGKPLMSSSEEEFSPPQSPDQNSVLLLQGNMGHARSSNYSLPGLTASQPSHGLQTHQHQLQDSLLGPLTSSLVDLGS
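GST-Six1 + His-Eya2 (5X stock: 250/500 nM); Tris pH 8.0, 300 mM NaCl, 0.05% BSA, 0.02% Tween 20; GSH donor/Ni acceptor beads; 1 h 37 °C dark; AlphaScreen readout.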
PINK1 expr mod – changes PINK1 expression; PINK1 immunofluorescence, high-content cytometry, 24 h; Potency, µM (titrated, usually from 76.6 µM), inactives show at the top dose activation (PINK1 increase), actives largely listed as activators; actives 0.2% (n = 410,000); active = well fitted activation curve with a large enough effect; inconclusive = small, poorly fitted or top-dose-only effect; inactive = flat fitted curve, though single readings scatter; cell line not stated here;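 also: potency is read from the fitted curve at half-maximal effect; % of control where 0% means no effect; nearly all actives have a fitted effect of over 65% in size; a mitochondrial uncoupler was the plate control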
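PINK1 protein level read as immunofluorescence by microplate cytometer in a fixed, stained stable cell line after 24 h exposure to five compound concentrations, with CCCP as control.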
D2 potentiator – positive allosteric modulators of human D2 dopamine receptor; P14416; DiscoveRx D2 beta-arrestin cells, luminescence, 90 min; 100% = 57 uM dopamine signal; potentiation, % (concentration not given with the values); actives 0.23% (n = 360,000); active = potentiation of 50% or more; inconclusive = 30% to 50%; inactive = 30% or less;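 also: compound concentration not given in the record; tested on top of an EC20 dose of dopamine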
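D2 cells co-treated with compound plus 50 nM dopamine (EC20) for 90 min at 37 deg C to detect potentiation. Beta-arrestin recruitment was read as enzyme-fragment luminescence after 1 h at ambient temperature. Full response was set by 57 uM dopamine.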
D2 ag – agonists of human D2 dopamine receptor (beta-arrestin); DiscoveRx PathHunter D2 beta-arrestin, luminescence, 90 min; 100% = 57 uM dopamine signal; P14416; actives 0.084% (n = 360,000); activation, % (test concentration not listed); AID 624465; in the data active = activation above about 40%; inconclusive = about 15% to 40%; inactive = below about 15%; also: compound concentration not given in the record; the text of the record calls up to 30% inactive
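Agonist mode: compounds alone added to overnight-plated D2 PathHunter cells for 90 min at 37 C, with 57 uM final dopamine (EC100) defining full response. Beta-arrestin recruitment detected by chemiluminescent reagent, read after 1 h at ambient temperature.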
CtBP-E1A inh – CtBP/E1A binding inhibition | AlphaScreen GST-E1A/His-CtBP binding, 1536-well; stronger effect = lower value; control for the full effect not named in the record | activity change, % (no concentration beside the values) | actives 0.49% (n = 340,000) | AID 651724; in the data active means activity change below about -65%; inconclusive means about -30% to -65%; inactive means above about -30%; also: % is scaled to controls: 0 for no effect and ±100 for the full control effect; compound concentration not given in the record
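AlphaScreen with 125 nM GST-E1A and 125 nM His-CtBP (5X stocks) in Tris pH 8.0, 300 mM NaCl, BSA, Tween 20, TCEP. Compounds preincubated 2 h at 37 deg C, then glutathione donor/nickel acceptor beads added for 1 h at 37 deg C in dark.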
Sfp PPTase inh – blocks B. subtilis Sfp PPTase activity | Potency, µM, for the others: max response, negative = inhibition, actives largely listed as inhibitors | Biochemical Sfp PPTase activity, qHTS | AID 1490 | actives 3.5% (n = 310,000) | Q9F4F7; active = well fitted inhibition curve with a large enough effect; inconclusive = small, poorly fitted or top-dose-only effect, or another doubt; inactive = no such curve, though single readings can be large or run the other way;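 also: the enzyme is Sfp with the accession as filed and its product quenches rhodamine fluorescence; potency is read from the fitted curve at half-maximal effect; 0% = enzyme reaction without inhibitor and -100% = no enzyme wells; top concentration of the series not given in the record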
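After 15 min at room temperature with compound, 15 nM Sfp received 5 uM rhodamine-CoA plus 12.5 uM BHQ-2-ybbR (50 mM Hepes pH 7.6, 10 mM MgCl2). Rate came from the fluorescence difference over 30 min, ex 525/em 598 nm.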
TRPV1 potentiator – potentiators of human vanilloid receptor 1 (TRPV1). TRPV1-expressing cells, Fluo-8 calcium influx, capsaicin EC20 potentiation; host cell line not named in the record; control for the full effect not named in the record. potentiation, % at 8.33 µM. actives 0.02% (n = 320,000); active means potentiation above 80%; inconclusive means 30% to 80%; inactive means below 30%; also: 0% is about no effect
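Cells expressing TRPV1 were dye-loaded with Fluo-8 and read kinetically: 10 s baseline, 3 min after compound (agonist portion), then 2 min after EC20 capsaicin (allosteric enhancer portion). Calcium-bound dye fluorescence at 480/520 nm.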
Starred values were filed as active, the others as inactive; ? = inconclusive; nt = not tested or not shown; [ ] = another dose, or the depositor's remark. Compounds were not picked by outcome; 3.7% or so of the library scored in one or more.

smiles	Six1-Eya2 blk	PINK1 expr mod	D2 potentiator	D2 ag	CtBP-E1A inh	Sfp PPTase inh	TRPV1 potentiator
O=C(N/N=C/c1cc(Br)ccc1OC(=O)c1ccc(Br)cc1)c1ccncc1	-79*	-1.7%	-9	-3.4	-91*	6%	-6
COc1ccc(S(=O)(=O)N2CCC3CC2c2c(-c4ccc(C(F)(F)F)cc4)cccc23)cc1 (stereo not given)	0	4.1%	3	-2.1	7	nt	nt
CCc1ccc(C2c3[nH]c4ccccc4c3CCN2C(=O)c2ccc(=O)n(C)n2)cc1 (stereo not given)	-7	7.1%	-1	3.3	-7	-7%	7
CC1CCN(C(=O)C2CCN(S(=O)(=O)c3cnc[nH]3)CC2)CC1	3	0.5%	14	-3.4	9	1%	7
NC(CCCCCP(=O)(c1ccccc1)c1ccccc1)C(=O)O (stereo not given)	-3	12%	-3	0.5	-3	-4%	nt
Cc1sc2nc(SCC(=O)NCCO)n(C)c(=O)c2c1C	-3	?	-11	-4.2	-1	12%	-4
O=C(Nc1ccc(N2CCCCC2)cc1)c1ccc2c(c1)OCCO2	-11	13%	-1	1.5	-2	10%	-10
Cc1ccccc1C(=O)NNC(=O)C1CCN(C(=O)Nc2ccccc2)CC1	-4	0.2%	4	-3.3	8	nt	4
COC(=O)C1(C)NC(c2ccco2)C2C(=O)N(c3ccc(C)cc3)C(=O)C21 (stereo not given)	4	-1.6%	-1	-2.7	-1	14%	0
COC(=O)c1ccc(OC(=O)C2CC(=O)N(c3cccc(C)c3)C2)cc1 (stereo not given)	2	13%[38.3 µM]	11	0.4	-1	1%	nt
C/C(=N\N=C(/N)SC1CC(=O)N(c2ccccc2)C1=O)c1cccs1 (stereo not given)	-1	3.3%[38.3 µM]	-11	0.9	1	11%	-4
CCCCc1ccc(S(=O)(=O)NNC(=S)NCc2ccco2)cc1	-26	3.0%	-8	-4.1	-24	4%	8
COCCN(CC(=O)Nc1cccc(C)c1C)C(=O)C1(c2ccccc2)CC1	-1	-1.5%	-1	-1.3	-4	nt	nt
Cc1cccc([C@@H]2[C@@H]3C(=O)N(Cc4ccccc4)C(=O)[C@@H]3[C@]3(Cc4ccccc4)C(=O)N(c4ccccc4)C(=O)N23)c1	6	-0.9%	-13	-4.3	nt	nt	28
COC(=O)C(NC=O)C(O)(Cc1ccccc1)C(F)(F)F (stereo not given)	18	-1.6%	-3	2.3	-5	13%	2

Of the compounds above, 2 have fluorine:
smiles	Six1-Eya2 blk	PINK1 expr mod	D2 potentiator	D2 ag	CtBP-E1A inh	Sfp PPTase inh	TRPV1 potentiator
COc1ccc(S(=O)(=O)N2CCC3CC2c2c(-c4ccc(C(F)(F)F)cc4)cccc23)cc1 (stereo not given)	0	4.1%	3	-2.1	7	nt	nt
COC(=O)C(NC=O)C(O)(Cc1ccccc1)C(F)(F)F (stereo not given)	18	-1.6%	-3	2.3	-5	13%	2

(next part)
smiles	Six1-Eya2 blk	PINK1 expr mod	D2 potentiator	D2 ag	CtBP-E1A inh	Sfp PPTase inh	TRPV1 potentiator
O=C(Nc1ccc(F)cc1)C(c1ccccc1)N1CCN(S(=O)(=O)c2ccccc2)CC1 (stereo not given)	3	-0.4%	7	-4.5	-1	34%[activator]	-4
CCCCn1c(N)c(N(CCOC)C(=O)c2ccc(OCc3c(C)noc3C)cc2)c(=O)[nH]c1=O	-5	1.9%	2	-1.1	nt	nt	-2
CCN(CC)S(=O)(=O)c1ccc(NC(=O)c2cnc(C)cn2)cc1	?	0.3%	-2	1.1	-2	-2%	2
Cc1ccccc1-n1c(Cn2c(=O)sc3ccccc32)nnc1SCC(=O)NCC1CCCO1 (stereo not given)	7	2.0%	-2	-2.8	4	13%	2
COc1ccc(CNC(=O)CSc2nnc(Cn3nnc4ccccc43)n2C)cc1	14	nt	-3	-1.1	46	22%	-7
O=C(Nc1ccc2c(c1)OCCO2)c1cc2ccccc2o1	-4	-0.2%	-18	0.0	0	-7%	-17
CCCCSCCCNC(=O)CS(=O)Cc1nc(-c2cccc(C)c2)oc1C (stereo not given)	-2	nt	-16	-2.7	-2	-12%	2
CC(C)Oc1ccc(C(=O)OCC(=O)NC2CCCCCC2)cc1	-3	-0.2%	-2	-1.7	nt	nt	-14
CC(C)N(Cc1nc(-c2ccccc2)no1)C(=O)Cc1ccccc1	5	-0.6%	-3	2.7	6	-6%	nt
CC(=O)c1cccc(N2C(=NC(=O)C3CCCCC3)SC3CS(=O)(=O)CC32)c1 (stereo not given)	11	2.2%	-5	-3.2	8	11%	-8
CN(c1ccc(OCC(=O)OCC(=O)Nc2ccc(F)cc2)cc1)S(=O)(=O)c1ccc(Cl)cc1	-17	2.4%	-10	-3.8	1	30%[activator]	-1
CC(=O)Nc1ncc(N=Nc2cccc(C(F)(F)F)c2)s1	?	8.4%	-5	-2.3	24	17%	8
Cc1c(C(=S)Nc2ccccc2)cnn1-c1ccccc1	-5	2.3%	-3	-1.2	0	32%[activator]	-23
COc1ccc(NC(=O)c2ccc(C)cc2)c(OC)c1	-8	2.8%	-4	-2.0	3	6%	-13
COc1ccc(CN2CCC(Cc3ccccc3)CC2)c(C)c1C	0	27%	-11	-2.0	5	-9%	-5

smiles	Six1-Eya2 blk	PINK1 expr mod	D2 potentiator	D2 ag	CtBP-E1A inh	Sfp PPTase inh	TRPV1 potentiator
CC(C)NC(=O)C1CCCN(S(=O)(=O)c2ccc(-n3cnnn3)cc2)C1 (stereo not given)	?	-7.9%[38.3 µM]	11	-2.0	3	7%	7
COc1ccc(C2(C(=O)NCc3ccccc3Cl)CCOCC2)cc1OC	10	-0.9%	-4	-3.4	-1	18%	-3
CC1CCN(C(=O)COc2ccc(S(=O)(=O)N3CCOCC3)cc2)CC1	2	-0.9%	6	-1.4	9	nt	2
[N-]=[N+]=NCCN1CCN(Cc2ccccc2)CCC1=O	2	1.0%	-10	-7.2	5	8%	-12
CSC1=C(C#N)C(c2ccccc2Cl)C(C(C)=O)=C(C)N1 (stereo not given)	6	14%[38.3 µM]	-7	1.0	2	-5%	0
O=C(N/N=C/C(Br)=C/c1ccccc1)C(O)c1ccccc1 (stereo not given)	1	6.5%	-6	5.8	?	-5%	-8
Cc1cc(/C=N/NC(=O)c2nn(C)cc2Cl)c(C)n1-c1cccc(Br)c1	-2	-0.4%	-2	1.2	-11	-10%	-10
CC(=O)Nc1ccc(C2NC(=S)N(c3ccccc3C(F)(F)F)C(C)=C2C(=O)N2CCOCC2)cc1 (stereo not given)	-5	0.0%	-1	-4.6	2	2%	7
CCOC(=O)c1nnn2c1nc(N(CC)CC)c1ccccc12	-18	-0.7%	-3	-4.7	-13	8%	-18
CN1CCN(c2ccc(-c3cccc(NC(=O)COc4ccccc4)c3)nn2)CC1	-3	1.6%	-20	-4.9	-4	nt	4
CC1(C)NC(C)(C)c2nonc2/C1=N\O	-1	-0.3%	-13	-2.8	6	21%	?
O=C(NCCc1ccc(C(F)(F)F)cc1)c1ccc(Cl)nc1	5	0.5%	-16	-1.8	5	7%	-10
Nc1nonc1-n1nnc(C(=O)c2ccccc2)c1-c1ccccc1	8	0.5%	-3	-0.4	-2	3%	-18
CCOC(=O)c1c(C)[nH]c(C(=O)COC(=O)Cn2cc(C(F)(F)F)ccc2=O)c1C	-5	0.8%	15	-1.9	nt	nt	-18
O=C(c1ccccc1)N1N=C(c2ccccc2)CC1c1ccccc1O (stereo not given)	-18	2.6%	-3	-22	4	10µM*	18

smiles	Six1-Eya2 blk	PINK1 expr mod	D2 potentiator	D2 ag	CtBP-E1A inh	Sfp PPTase inh	TRPV1 potentiator
CCN(CC(=O)Nc1ccc(NC(C)=O)cc1)C(=O)c1c(C)nn(Cc2ccc(C)cc2)c1Cl	3	0.5%	-1	-3.9	0	nt	nt
CC(=O)NC(=S)Nc1cccc([N+](=O)[O-])c1	1	0.1%	-16	-2.0	0	18%	-2
CCOC(=O)c1cn2nc(Oc3ccc(C(=O)OC)cc3)ccc2n1	4	-0.6%	-1	-3.8	3	11%	11
CC(Oc1ccccc1)C(=O)Nc1cccc(F)c1 (stereo not given)	17	-0.2%	3	-0.4	-2	17%	-5
COc1ccc(N(C)S(=O)(=O)c2c(C)[nH]c(=O)[nH]c2=O)cc1	-1	-0.6%	6	-0.7	-1	19%	-1
FC(F)C(F)(F)Oc1cccc(Nc2nccn3c(-c4cc(C(F)(F)F)cc(C(F)(F)F)c4)cnc23)c1	3	0.8%	-5	12	0	nt	nt
CC(C)(C)c1ccc(CC(=O)N2CCC2(C)C(=O)NCc2ccc(Cl)cc2)cc1 (stereo not given)	1	1.7%	-5	4.9	5	nt	nt
COc1ccccc1N(C)S(=O)(=O)c1ccc(C(=O)NCCCN2CCCC2=O)cc1	7	-0.8%	-13	0.0	-1	nt	nt
O=C(OCc1c(F)cccc1Cl)c1cnccn1	8	-0.9%	-14	-3.6	1	12%	9
O=C(c1ccc(CS(=O)(=O)c2c(Cl)cccc2Cl)o1)N1CCN(c2ccccn2)CC1	-1	0.0%	-3	1.2	0	6%	-7
CCC(C(=O)Nc1ccc(C(C)C)cc1)c1ccccc1 (stereo not given)	0	23%	-11	-8.1	8	2%	-6
N=C1c2ccccc2CN1NC(=O)c1cccc(S(=O)(=O)N2CCCC2)c1	-2	1.7%	2	-1.8	nt	18%	1
COc1ccccc1C(NC(C)=O)c1c(O)ccc2ccc(O)cc12 (stereo not given)	7	2.2%	-8	-4.1	1	nt	nt
COc1ccc(C)cc1S(=O)(=O)N(C)CC(=O)N1CCC(C(N)=O)CC1	-2	1.2%	0	-0.4	8	19%	1

With a hit mark in CtBP-E1A inh, of those listed so far:
canonical_smiles	Six1-Eya2 blk	PINK1 expr mod	D2 potentiator	D2 ag	CtBP-E1A inh	Sfp PPTase inh
O=C(N/N=C/c1cc(Br)ccc1OC(=O)c1ccc(Br)cc1)c1ccncc1	-79*	-1.7%	-9	-3.4	-91*	6%

One compound at a time, from the list above. Screens in order: Six1-Eya2 blk, PINK1 expr mod, D2 potentiator, D2 ag, CtBP-E1A inh, Sfp PPTase inh, TRPV1 potentiator
Listed for N=C1c2ccccc2CN1NC(=O)c1cccc(S(=O)(=O)N2CCCC2)c1 → -2, 1.7%, 2, -1.8, nt, 18%, 1
Listed for Cc1cccc([C@@H]2[C@@H]3C(=O)N(Cc4ccccc4)C(=O)[C@@H]3[C@]3(Cc4ccccc4)C(=O)N(c4ccccc4)C(=O)N23)c1 → 6, -0.9%, -13, -4.3, nt, nt, 28
Listed for CCOC(=O)c1c(C)[nH]c(C(=O)COC(=O)Cn2cc(C(F)(F)F)ccc2=O)c1C → -5, 0.8%, 15, -1.9, nt, nt, -18
